BasE inh – BasE siderophore biosynthesis inhibition; inhibition, % (concentration not given with the values); 0.1% of 84,000 active; purified BasE, fluorescence polarization binding displacement;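 active means both replicates above 25% with normal brightness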;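 further: 0% = negative plate control signal and 100% = positive plate control signal; stock transfer was 100 nL into about 30 µL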
LANA-nucl inh – inhibitors of KSHV LANA binding to nucleosomes; AID 720717; z-score (no concentration beside the values); 0.3% of 51,000 active; FITC-LANA1-23 / chicken nucleosome fluorescence polarization; stronger effect = lower value;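 active means both repeat wells score below -2 in polarization z-score versus plate sample wells, excluding overly bright wells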;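 further: 100 nL library stock added to about 30 µL; numbers are from one replicate; some results filed as inactive read as strong as hits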
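Assay system: purified chicken nucleosomes with FITC-labelled LANA N-terminal peptide (1-23) / Probe or stimulus: 50 nM FITC-LANA1-23 probe / Compound dosing: pin-transferred compound, 100 nL / Times: compound with peptide–nucleosome mix 10–45 min at room temperature / Technique: fluorescence polarization, 480 nm excitation, 535 nm parallel and perpendicular emission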
Numbers without * were called inactive; · = no result given; & = joins results of further samples.

nr	SMILES	BasE inh	LANA-nucl inh
1	COc1cccc(NC(=O)c2ccnc(N3CCC(C(=O)NC4CCCC4)CC3)c2)c1	-3.5	1.3
2	CSc1nn(-c2ccccc2)cc1C(=O)N1CCOCC1	1.6	-1.5
3	Cc1ccc(-c2nn3c(CC#N)nnc3c3ccccc23)cc1	0.3	0.32
4	O=c1[nH]c2c(c(=O)[nH]1)CN(Cc1ccc(F)cc1)CC2	-0.9	-0.36
5	O=C(COc1ccc(Cl)cc1)Nc1noc2ccccc12	-0.5	-0.15
6	CC1Sc2ccc(C(=O)NCc3ccccn3)cc2NC1=O (configuration not stated)	3.8	·
7	CCCC(C)C(=O)Nc1ccc(Cl)cn1 (configuration not stated)	4.3	-0.011
8	N[C@@H]1CCCC[C@H]1N.O=C(O)C(=O)O.[Pt]	·	-0.5
9	FC(F)Oc1ccc(N=C2SCC3CCCCN23)cc1 (configuration not stated)	1.1	·
10	O=C(Nc1ccccc1Cl)N1CCc2ccccc2C1	1.6	0.026
11	Cc1ccc(Oc2ccc(C)c(C)c2)cc1C	1.2	·
12	Cc1ccc(-c2nnc(N3CCOCC3)c3ccccc23)cc1S(=O)(=O)NCC1CCCO1 (configuration not stated)	0.5	0.46
13	CC(=O)N1CCN(CC(=O)N2CCc3ccccc3C2)CC1	1.8	·
14	Fc1cnc(Nc2cccc(Br)c2)nc1Nc1cccc(Br)c1	0.3	·
15	CC(C(=O)O)n1c(-c2cccs2)n[nH]c1=S (configuration not stated)	2.8	·
16	Cc1cc(C(=O)N2CCc3ccccc3C2)n[nH]1	-0.3	-1.5
17	COC(=O)c1scc(-c2ccccc2)c1S(=O)(=O)N1CCN(c2ccccc2OC)CC1	1.6	-0.53
18	COc1cnn(-c2cccc(Cl)c2)c(=O)c1Cl	-1.0	0.51
19	CCn1cc(C(=O)NC2CCCCC2)c2cc(OC)c(OC)cc2c1=O	5.2	-0.49
20	CCN(CC(=O)Nc1ccc2c(c1)OCCO2)C(=O)C1CC1	2.1	·
21	CC(=O)NC(=S)Nc1ccc(Cl)cc1	18	-0.083
22	O=C1c2ccc(-c3nc4cc(Cl)ccc4c(=O)o3)cc2C(=O)N1CC1CCCO1 (configuration not stated)	3.9	0.79
23	CCn1cc(C(=O)OCC(=O)N(C)Cc2ccccc2)c(=O)c2ccc(C)nc21	-0.6	·
24	COC(=O)c1ccc(COc2ccc(/C=N/NC(N)=O)cc2)o1	2.8	·
25	NC(=O)C1CCN(C(=O)CCc2nc3ccccc3n2-c2ccccc2)CC1	-1.7	·
26	CCn1c2ccc(F)cc2c2nc(C)sc21	4.0	-0.069
27	CC(NC(=O)c1ccc(C(C)(C)C)cc1)C(=O)O (configuration not stated)	2.1	·
28	O=C(NC1CCCC1)c1ccc2c(=O)n3c(nc2c1)CCCCC3	-1.9	-0.46
29	O=C(CSc1nc2ccccc2s1)c1ccc[nH]1	-2.7	·
30	O=C1NC(Nc2nc3ccccc3s2)(C(F)(F)F)C(=O)N1C1CCCCC1 (configuration not stated)	-1.2	-0.21

(more compounds)
nr	SMILES	BasE inh	LANA-nucl inh
31	CC(NC(=O)c1ccc(Cl)cc1Cl)C(=O)O (configuration not stated)	·	-0.4
32	CNS(=O)(=O)c1ccc(C(F)(F)F)cc1S(=O)c1ccccc1C(=O)O (configuration not stated)	3.9	·
33	CCCCS(=O)(=O)Nc1cccc(Cl)c1	1.9	0.14
34	COC(OC)(C(=O)c1ccccc1)c1ccccc1	1.2	·
35	CC(NC(=O)Nc1ncccn1)(C(F)(F)F)C(F)(F)F	3.5	·
36	O=C(NC1CC1)C1CCCN(C(=O)NC2CCCCC2)C1 (configuration not stated)	-1.1	0.07
37	Cc1c(C(=O)O)oc2c1-c1nn(Cc3cccc(Cl)c3)cc1CC2	0.6	1.1
38	CN(C)c1nc2n(c(=O)n1)CCN2C(=S)S	-1.6	0.16
39	COC(=O)c1cc2c(s1)-c1cc(Cl)ccc1SC2	1.5	·
40	O=C(O)C(F)(F)C12OC3C4C5CC(C6C5C3C61)C42 (configuration not stated)	0.7	-0.36
41	Cc1[nH]c(=S)c(C#N)c(C)c1CCC#N	1.5	·
42	O=c1[nH]c(N2CCN(Cc3ccccc3)CC2)nc(O)c1Cc1ccccc1	-0.4	0.58
43	O=S(=O)(/N=C(/c1ccccc1)N1CCCCC1)c1ccccc1	0.0	·
44	O=C(/C=C/c1ccc(S(=O)(=O)NCc2ccco2)cc1)NCC(F)(F)F	-0.4	·
45	Clc1ccc(C=NCc2ccc(-c3cccs3)s2)cc1	-2.8	·
46	c1ccc2c(c1)NC(c1c[nH]c3ccccc13)N2	-0.6	·
47	O=C(NCc1cccnc1)c1cnn(-c2cccc(F)c2)c1C1CCNCC1	1.9	·
48	CS(=O)(=O)Cc1ccc(C(=O)N2CCCC2c2cccs2)cc1 (configuration not stated)	2.0	·
49	C=CCNc1nc(C)nc(OC)n1	0.3	·
50	CCN(CC)CCNc1ncnc2sc3c(c12)CCCC3	0.9	-0.065
51	CC(Nc1ccc(Cl)cc1)C(=O)N/N=C/c1cccc(O)c1 (configuration not stated)	5.5	-0.49
52	CCn1c(CN(C)C(C)=O)nc2ccccc21	0.9	-0.053
53	COc1ccccc1NS(=O)(=O)c1ccc2oc(=S)n(CN(C)CCC#N)c2c1	2.1	·
54	COc1ccc2c(C)c(CC(=O)N3CCOCC3)c(=O)oc2c1	0.1	0.61
55	COC(=O)CSc1nc(C)c(Br)c(=O)[nH]1	4.2	·
56	Cc1ccc(-n2nc(C)c3c(=O)[nH]c(C(F)(F)F)nc32)cc1	0.1	·
57	CC12CN3CC(C)(CN(C1)C3c1ccc(O)cc1)C2 (configuration not stated)	0.1	-0.41
58	COc1ccc2c(CSc3nncn3-c3ccccc3OC)cc(=O)oc2c1	0.5	·
59	S=c1oc2ccc(Cl)cc2n1CN1CCCC1	-0.1	·
60	COc1ccc(-c2nnc(SCC#N)n2C2CCCCC2)cc1OC	-1.0	·

(next part)
nr	SMILES	BasE inh	LANA-nucl inh
61	COC(=O)c1cc2cccc3c2n1CCS3	1.1	0.43
62	COc1ccccc1C(=O)N(C)CCc1ccccn1	-0.2	·
63	COc1ccc(C(=O)NCCc2c[nH]c3ccc(OC)cc23)cc1	·	-1.2
64	CC(C)(C)OC(=O)N1CCN(CCNC(=O)c2ccc(Cl)cc2)CC1	-0.4	·
65	CC(=O)n1nc(C)c(Sc2nnnn2-c2ccccc2)c1C	-0.6	-0.34
66	O=C(c1ccc2nc[nH]c2c1)N1CCN(S(=O)(=O)c2ccccc2C(F)(F)F)CC1	-2.2	·
67	Cc1ccc(C)c(NC(=O)COC(=O)c2ccc3c(=O)n4c(nc3c2)CCCCC4)c1	1.9	·
68	CC(C)(C)S(=O)(=O)c1cccc2ccccc12	3.9	-0.16
69	O=C(NC1CCCCC1)NC1CC2CCC(C1)N2C(=O)NCc1ccccc1 (configuration not stated)	-0.4	-0.62
70	Oc1cccc(CN2CCN(C/C=C/c3ccccc3)CC2)c1	1.4	-1.1
71	CN1CCN(Nc2nc3c(c(=O)[nH]c(=O)n3C)n2Cc2ccc(F)cc2)CC1	1.0	-0.15
72	Cc1cc(-n2c(C)cc(C(=O)CSc3n[nH]c(=O)n3Cc3ccccc3)c2C)no1	-56	·
73	Cc1csc(Cc2nc(-c3ccc(O)cc3)no2)n1	-1.0	·
74	O=C(c1ccccc1Cl)N(Cc1ccco1)Cc1cc2cc3c(cc2nc1Cl)OCO3	0.4	-0.066
75	COc1ccccc1NC(=O)NCC(c1ccco1)N1CCCCC1 (configuration not stated)	-1.2	·
76	COC(=O)c1cc2oc3ccccc3c2n1CC(=O)Nc1cc(C)cc(C)c1	3.4	-0.62
77	Cc1onc(-c2ccccc2)c1C(=O)NCc1ccc2c(c1)OCO2	1.1	·
78	COC(=O)C1C2C=CC3(CN(Cc4ccco4)C(=O)C13)O2 (configuration not stated)	0.1	-0.83
79	Brc1ccc2c(ccc[n+]2C/C=C/c2ccccc2)c1	-0.6	·
80	Cc1nc2ccccc2[nH]c1=S	-0.7	2.1
81	COc1cccc(C(=O)NC(c2ccco2)c2c(O)ccc3ccccc23)c1 (configuration not stated)	-0.9	0.77
82	Cc1ccc(NC(=O)CCC(=O)c2cccs2)cc1	-3.4	0.28
83	NC(=O)Cn1c(-c2nonc2N)nc2ccccc21	0.9	0.16
84	CC(C)c1cc(C(=O)Nc2ccc(-c3nnc4n3CCCCC4)cc2)c2cnn(C(C)C)c2n1	2.2	·
85	COC(=O)C1=NN(C(=O)c2cccc(OC)c2)C(C)(O)C1 (configuration not stated)	-2.4	2.5
86	CCSC1=C(C#N)C(c2ccc(C(C)C)cc2)C2=C(CCCC2=O)N1 (configuration not stated)	0.5	·
87	CC(=O)Nc1ccc(NC(=O)C2CC(=O)N(Cc3ccco3)C2)cc1 (configuration not stated)	-0.4	·
88	Cc1cc(C(=O)CSC2=C(C#N)C(C)(C)C(C#N)C(=O)N2)c(C)n1-c1ccccc1 (configuration not stated)	-1.1	·
89	Cn1c(SCC(=O)c2ccccc2)nnc1C(F)(F)F	1.2	·
90	C=CCn1c(SC(C#N)Cc2ccccc2)nnc1C1CCCCC1 (configuration not stated)	-5.2	·

Continued.
nr	SMILES	BasE inh	LANA-nucl inh
91	COc1ccc(Cc2nc3ccccc3n2C(C)C)cc1	0.2	0.35
92	C=CCSc1nnc2c(n1)[nH]c1ccccc12	1.4	0.56
93	NC(=O)CN1CCN(c2ccc(Cl)cc2)CC1	-3.5	-0.34
94	Cc1ccccc1OCC(=O)Nc1ccc(NC(=O)c2ccco2)cc1	0.3	-0.81
95	Nc1cc(N)nc(SC(C(=O)N2CCCCC2)c2ccccc2)n1 (configuration not stated)	-0.8	·
96	COc1ccc(-c2nonc2NC(=O)COc2ccccc2)cc1	-2.4	2.6
97	C=CCSc1nnc(CCc2nnc(SCC=C)n2-c2ccccc2)n1-c1ccccc1	1.3	-0.7
98	COc1cc(C2N(c3ccccc3)CCN2c2ccccc2)cc(OC)c1OC	2.8	-1.3
99	O=c1c2ccccc2ncn1-c1ccc(F)cc1	0.9	-0.73
100	Cc1ncc(CO)c(CNc2ccccc2)c1O	-0.6	0.12
101	Cc1nc(SCC(=O)c2cc(C)n(-c3ccccc3)c2C)c2ccsc2n1	0.9	-0.88
102	N#CCCn1cc(/C=N/n2c(=O)[nH]c3ccccc3c2=O)c(-c2ccc(F)cc2)n1	-3.3	·
103	Cc1nnc(NC(=O)C(C)Oc2ccc(Cl)c(C)c2)s1 (configuration not stated)	1.1	0.072
104	Cc1sc2nc(C)n(C3CCN(CC(=O)NCC4CC4)CC3)c(=O)c2c1C	-1.6	-0.17
105	CC1CC(C)CN(c2nnc(NC(=O)c3cc(-c4ccc(Br)cc4)on3)s2)C1 (configuration not stated)	-0.4	-0.27
106	CC(NC(=O)c1ccccc1F)C1CC1 (configuration not stated)	2.6	·
107	CN(C)c1nc(Nc2ccc(F)cc2)nc(Oc2ccc(F)cc2)n1	-0.7	-0.1
108	C=CCOC(Cn1ccnc1)c1ccc(Cl)cc1Cl (configuration not stated)	-3.7	-1.5&2.3
109	CCOCCn1c(=NC(=O)C(C)(C)C)sc2cc(S(C)(=O)=O)ccc21	-1.1	0.85
110	c1ccc(SCCNC2=NCCCS2)cc1	0.5	·
111	CC(C)(C)c1ccc2c(c1)N(CC(=O)O)C(=O)CO2	-1.1	-0.12
112	CC(C(=O)Nc1ccc(Br)cc1)N1CCN(S(=O)(=O)c2ccccc2)CC1 (configuration not stated)	-2.6	·
113	O=C1NC(=O)C(CC(=O)N2CCCCC2)N1 (configuration not stated)	0.1	-0.66
114	CC(C)N(Cc1cc2ccccc2[nH]c1=O)C(=O)c1ccncc1	1.2	-0.19
115	N=C1c2ccccc2CN1c1ccc(S(=O)(=O)N2CCCCC2)cc1	1.6	·
116	CC1=NN(c2ccccc2)C(=O)/C1=C1/C(=O)N(c2ccccc2)N=C1C	-2.2	-0.45
117	N=c1n(CC(=O)c2ccc(Cl)c(Cl)c2)c2ccccc2n1Cc1ccccc1	-7.7	·
118	CCc1nc(NCC(C)C)c(C#N)c2c1CCCC2	1.2	·
119	CC(C)(C)c1ccc(OCCC(=O)O)cc1	-0.1	·
120	O=C(c1cc2sccc2n1Cc1ccccc1)N1CCN(Cc2ccc3c(c2)OCO3)CC1	-0.1	-0.38

(continued)
nr	SMILES	BasE inh	LANA-nucl inh
121	O=C1CN(C(=O)/C=C/c2ccc(Cl)cc2)c2ccccc2N1	-1.9	·
122	O=S(=O)(c1ccccc1)N1CCC(n2cnc3ccccc32)CC1	2.0	-1.4
123	O=C(OCc1ccccc1)Oc1cncc(C(=O)O)c1	0.0	·
124	CSc1nsc(SCCN2C(=O)c3ccccc3C2=O)n1	1.7	0.57

Screening results: PubChem BioAssay, ICCB-Longwood Screening Facility, Harvard Medical School

Not all compounds are listed, so the mix of outcomes need not match the whole.
